# Methyltransferases: Primary Screen for Target Class Profiling of Small Molecule Inhibitors of Methyltransferases | purified enzyme, MTase-Glo SAH luminescence; hits give low values | calls only at 40 µM | actives 3.9% (n = 25,000) | AID 1745853, 2022; active = -50% or lower on at least one of six enzymes; inconclusive = the cases between; inactive = as a rule above -30% on all six;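 note: enzymes were COMT GAMT GNMT HNMT NNMT and PNMT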
#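 Each enzyme was reacted with SAM and its substrate, with compounds tested once at 40 uM; SAH formed was read by MTase-Glo luminescence.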
# Calls only; i = inactive; ? = inconclusive; + = active, no number. % is set by controls: 0 for no effect and ±100 for the full control effect.
SMILES,Methyltransferases
CCOc1ccc(CN2C(=O)c3cc4ccccc4n3CC2(C)C(=O)NCc2ccccc2OC)cc1 (stereo not given),i
C[C@@H]1CC[C@]2(C(=O)O[C@@H]3O[C@H](CO)[C@@H](O)[C@H](O)[C@H]3O)CC[C@]3(C)C(=CCC4[C@@]5(C)C[C@@H](O)[C@H](O)[C@](C)(C(=O)O)C5CC[C@]43C)[C@@H]2[C@]1(C)O (stereo not given in full),i
CC(C)Cn1c(=O)c2ccc(C(=O)NC(C)C)cc2n2c(SCC(=O)NC(C)(C)C)nnc12,i
O=C(NCc1ccc(OC(F)(F)F)cc1)c1cc(CN2CCOCC2)on1,i
O=C(CCn1ccc2cc(S(=O)(=O)N3CCCCC3)ccc21)N1CCC(Cc2ccccc2)CC1,i
CCN(c1cc(C#CCN2CCOCC2)cc(C(=O)NCc2c(C)cc(C)[nH]c2=O)c1C)C1CCC(N(C)CCOC)CC1 (stereo not given),?
O=C(CCn1ccc2cc(S(=O)(=O)N3CCCC3)ccc21)NCc1cccnc1,i
Cc1cc(C)cc(NC(=O)N2CCC(CCc3nc(C4CCOCC4)no3)CC2)c1,i
Cc1ccc(C(=O)Nc2ccc(S(=O)(=O)O)c3cc(S(=O)(=O)O)cc(S(=O)(=O)O)c23)cc1NC(=O)c1cccc(NC(=O)Nc2cccc(C(=O)Nc3cc(C(=O)Nc4ccc(S(=O)(=O)O)c5cc(S(=O)(=O)O)cc(S(=O)(=O)O)c45)ccc3C)c2)c1,+
CCCn1c(=O)c2ccc(C(=O)NC(C)CC)cc2n2c(=O)n(Cc3ccc(F)cc3Cl)nc12 (stereo not given),i
CCN1CCC[C@H]1CNC(=O)c1c(O)c(Cl)cc(Cl)c1OC,i
CCS(=O)(=O)N(Cc1cccnc1)c1cccc(-c2ccc(C#N)cc2)c1,i
CCc1ccccc1CN1CCCC2(Cc3ccccc3CNC2=O)C1 (stereo not given),i
Cc1cc(C)cc(N2C(=O)c3cc4occc4n3CC2(C)C(=O)NC2CCCCCC2)c1 (stereo not given),i
CC(C)CCn1c(=O)c2ccccc2n2c(=O)n(Cc3ccccc3F)nc12,i
CN(C)c1ccc(CN2C(=O)c3nc4ccccc4n3CC2(C)C(=O)NCc2ccccc2)cc1 (stereo not given),i
CCOCCCNC(=O)CCn1ccc2cc(S(=O)(=O)N3CCCCC3)ccc21,i
COCCN1C(=O)N(C)C(=O)C12CCN(CCCOc1ccc(F)cc1)C2 (stereo not given),i
C[C@H](/C=C/[C@@]1(O)[C@H](C)CC(=O)CC1(C)C)O[C@@H]1O[C@H](CO[C@@H]2OC[C@@H](O)[C@H](O)[C@H]2O)[C@@H](O)[C@H](O)[C@H]1O,i
C/C=C(\C)C(=O)OCC1OC(OCC2OC(OC3(CO)OC(CO)C(O)C3O)C(O)C(O)C2O)C(O)C(O)C1O (stereo not given),i

# Four of the compounds above, with bars between the fields:
compound | Methyltransferases
Cc1cc(C)cc(N2C(=O)c3cc4occc4n3CC2(C)C(=O)NC2CCCCCC2)c1 (stereo not given) | i
CC(C)CCn1c(=O)c2ccccc2n2c(=O)n(Cc3ccccc3F)nc12 | i
CN(C)c1ccc(CN2C(=O)c3nc4ccccc4n3CC2(C)C(=O)NCc2ccccc2)cc1 (stereo not given) | i
CCOCCCNC(=O)CCn1ccc2cc(S(=O)(=O)N3CCCCC3)ccc21 | i

# Remaining list, next part:
SMILES,Methyltransferases
CCc1ccc(-c2cc3n(n2)CC(C)(C(=O)NC2CCCCC2)N(Cc2ccccc2)C3=O)cc1 (stereo not given),i
OCc1nc(C2CCNC2)no1 (stereo not given),i
CSCC(=O)N1C[C@@H](NC(=O)NC(C)C)C[C@H]1C(=O)N[C@H](Cc1c[nH]c2ccccc12)C(N)=O,i
O=C(CCc1nnc2n(Cc3ccccc3)c(=O)c3ccccc3n12)Nc1ccc(F)cc1,i
CC(C)(C)OC(=O)Nc1ccc(-c2cc(C(=O)NCCCCCCC(=O)NO)no2)cc1,?
CN(C)C(=O)/N=N/C(=O)N(C)C,?
Cc1ccc(CN2CCNCC2)cc1NC(=O)CNc1ccc(F)c(F)c1,i
COc1ccc(CN2CCN(CCCSc3cc(C(C)(C)C)c(O)c(C(C)(C)C)c3)CC2)c(OC)c1OC,i
COC(=O)/C=C/c1ccc(O[C@@H]2O[C@H](CO)[C@@H](O)[C@H](O)[C@H]2O)cc1,i
Cc1ccccc1Cn1nc2n(C(C)C)c(=O)c3ccc(C(=O)NC4CCCC4)cc3n2c1=O,i
Cc1ccccc1CNC(=O)C1(C)Cc2ccccc2C(=O)N1Cc1ccc(C(F)(F)F)cc1 (stereo not given),i
CCCOc1ccc(CN2C(=O)c3cc4occc4n3CC2(C)C(=O)NC2CCCCC2C)cc1 (stereo not given),i
C=CCOc1ccc(-c2nnc(CCC(=O)NCCOc3ccccc3)c(=O)[nH]2)cc1,i
CCCn1c(=O)c2ccc(C(=O)NCC(C)C)cc2n2c(=O)n(CC(=O)c3ccc(OCC)cc3)nc12,i
CC(=O)N1CCC(N2C[C@@H]3C[C@H](C2)c2ccc(-c4ccccc4CN(C)C)c(=O)n2C3)CC1,i
N#C/C(=C\c1ccc(-c2cc(Cl)ccc2Cl)o1)C(=O)Nc1cccc2ncccc12,i
C[C@H]1[C@@H]2[C@@H](O)C([C@H](C)C(=O)NC3CCCCC3)CC[C@@]2(C)CC[C@@H]1NC(=O)C1CCCCC1 (stereo not given in full),i
C=C1C(=O)O[C@@H]2C(OC(=O)/C(C)=C\C)/C(C)=C\C(=O)/C=C(\C)C[C@H](O)[C@@H]12 (stereo not given in full),i
CS(=O)(=O)N(Cc1cccnc1)C1CN(C(=O)CCc2c[nH]c3ccccc23)C1,i
CC1CCCCC1NC(=O)C1(C)Cn2c(ccc2-c2ccco2)C(=O)N1Cc1ccc(Cl)cc1 (stereo not given),i
CCOC(=O)c1cc2n(n1)CC(C)(C(=O)NCCCOC)N(c1ccc(OC)cc1)C2=O (stereo not given),i
CCCNC(=O)c1ncn2c1C(=O)N(C1CC1)C(C)(C(=O)NCc1cccc(C)c1)C2 (stereo not given),i
C=C1C(=O)O[C@@H]2C[C@@H](C)[C@]34C[C@]5(C(=O)O[C@H]6CC(C)=C([C@H](C)CCCO)[C@H](OC(=O)C(C)CC)[C@H]65)[C@@H](C(C)=C3C[C@@H]12)[C@H]4OC(C)=O (stereo not given in full),i
COc1ccc(CN2C(=O)c3c(-n4cccc4)c4cc(C)ccc4n3CC2(C)C(=O)NC2CCC(C)CC2)cc1 (stereo not given),i
FC(F)(F)c1cc(C(F)(F)F)c2ccc3nc(-c4nnco4)cn3c2n1,i
CCCNC(=O)C1CCc2ncc(-c3ccc(OC)cc3)n2C1 (stereo not given),i
Cc1cc(Nc2cc(C)c(C#N)c(NC(C)CCCC(C)(C)O)n2)n[nH]1 (stereo not given),?
CN(C1CCCCC1)S(=O)(=O)C1CCS(=O)(=O)C1 (stereo not given),i
O=c1c2c(CO)c(-c3ccccc3)nn2ccn1Cc1ccccc1,i
CCc1ccc(NC(=O)c2cc3n(n2)CC(C)(C(=O)NC2CCCCC2)N(C)C3=O)cc1 (stereo not given),i
CC1=CC2(O)/C=C/C(C)(O)CC(O)/C=C/C(=O)OC23C(=O)NC(CC(C)C)C3C1C (stereo not given),i
COc1ccc(-c2cc(N3CCCN(C(=O)CCCc4ccccc4)CC3)n[nH]2)cc1,i
CCn1ncc(CN2CC[C@@H]3CN(S(C)(=O)=O)[C@@H]3C2)c1C,i
CCn1c(=O)n(CC)c2cc(S(=O)(=O)Nc3cccc(F)c3)ccc21,i
CCCn1c(=O)c2ccc(C(=O)NCC(C)C)cc2n2c(=O)n(Cc3c(F)cccc3Cl)nc12,i
CC(C)CCn1c(=O)c2ccc(C(=O)NC(C)C)cc2n2c(=O)n(Cc3ccccc3F)nc12,i
COCC1CCN(c2ccc(-c3nc(-c4ccccc4C)no3)cn2)C1 (stereo not given),i
NCCCCN(Cc1nc2ccccc2[nH]1)[C@H]1CCCc2cccnc21,i
COc1ccc(OC2CN(CC3CC3)C2)cc1,i
CCOC(=O)c1cc2n(n1)CC(C)(C(=O)NCc1ccc(F)cc1)N(Cc1ccc(OC)cc1)C2=O (stereo not given),i
O=C(Cc1ccccc1)NCc1nnc2n1C(C(=O)O)CC2 (stereo not given),i
CC(C)Cn1c(=O)c2ccccc2n2c(=O)n(CC(=O)Nc3ccc(Cl)cc3)nc12,i
COc1ccccc1NS(=O)(=O)c1cc2c(cc1Cl)n(C)c(=O)n2C,i
COc1ccc(CNC(=O)c2ccc3c(=O)nc4c(-c5cccc(C)c5)n[nH]n4c3c2)cc1,i
COc1cccc(Cn2nc3n(CC(C)C)c(=O)c4ccc(C(=O)NC5CCCCC5)cc4n3c2=O)c1,i
COc1ccccc1NC(=O)Nc1cccc(-c2nnc3n2CCCC3)c1,i
Cc1ccc2n1CCN(C(=O)Nc1ccccc1F)C2C(C)C (stereo not given),i
O=C(Cn1cccc1-c1nc(-c2ccc(F)cc2)no1)NCc1ccccc1Cl,i
Cc1cccc(CSc2nnc3n(CC(C)C)c(=O)c4ccccc4n23)c1,i
CCCCN1C(=O)c2ccc(-c3ccccc3)n2CC1(C)C(=O)NC1CCC(C)CC1 (stereo not given),i

# (list continues)
SMILES,Methyltransferases
Cc1ccc(CNC(=O)Cn2c(=O)c3ccc(Cl)cc3n3nncc23)cc1,i
Cc1cc(C)cc(NC(=O)N2CCn3cccc3C2C)c1 (stereo not given),i
O=C(NCc1ccccc1)c1cnc2n1CCN(Cc1ccccc1)CC2,i
COc1ccc(-c2nc(C)nc3c2CCC3)c2ccc(C)nc12,i
N#Cc1ccc(CN2C[C@@H](CO)[C@H](NC(=O)c3ccccc3)C2)cc1,i
Cc1cccc(C(=O)N2CCCCCNC(=O)CC2c2ccccc2)c1 (stereo not given),i
CC[C@H](C)[C@@H]1NC(=O)[C@H](Cc2ccc(OC)cc2)NC(=O)CCCSC[C@@H](C(=O)N2CCC[C@H]2C(=O)N[C@@H](CC(C)C)C(=O)NCC(N)=O)NC(=O)[C@H](CC(N)=O)NC(=O)[C@H](CCC(N)=O)NC1=O,i
CCC(C)NC(=O)c1ccc2c(=O)n(CC(C)C)c3nn(CC(=O)N(C)c4ccccc4)c(=O)n3c2c1 (stereo not given),i
C[C@@H]1O[C@@H](O[C@H]2[C@H](O)[C@@H](C(=O)O)O[C@@H](O[C@H]3CC[C@@]4(C)C(CC[C@]5(C)C4CC=C4C6CC(C)(C)CC[C@]6(C(=O)O)CC[C@]45C)C3(C)C)[C@@H]2O[C@@H]2OC[C@@H](O)[C@H](O)[C@H]2O)[C@H](O)[C@H](O)[C@H]1O (stereo not given in full),i
Fc1cccc(-c2nnn3c2nc(NC2CCCCC2)c2ccccc23)c1,i
CC(C)C1c2cccn2CCN1C(=O)Nc1ccccc1Br (stereo not given),i
COc1c2c(c(C)c3c1C(=O)OC3)OC1(C)CC(O)C34OC(OC)(CC(O)C3(C)C1C2)OC4(C)C (stereo not given),+
CN(CC(=O)Nc1cccc(F)c1)S(=O)(=O)c1ccc2[nH]c3c(c2c1)CCCC3,i
COC(=O)C1=CO[C@@H](O[C@@H]2O[C@H](CO)[C@@H](O)[C@H](O)[C@H]2O)[C@@H]2C(CO)=CC[C@H]12,i
O=C1CC(C(=O)Nc2cccc(Cl)c2)n2ncnc2N1 (stereo not given),i
CN(C(=O)Cn1nc2n(C)c(=O)c3ccc(C(=O)NC4CCCC4)cc3n2c1=O)c1ccc(F)cc1,i
NC(=O)c1cnc(N[C@@H]2CCCC[C@H]2N)nc1Nc1cccc(-n2nccn2)c1,?
CCCC(=O)Nc1cccc(NC(=O)c2ccccc2Br)c1,i
CCCn1c(=O)c2cc(F)ccc2n2c(SCC(=O)Nc3ccc(C)cc3C)nnc12,i
C=C[C@]1(C)C=C2CCC3C(C)(CCC[C@@]3(C)C(=O)O)C2CC1 (stereo not given in full),i

# The final 7 compounds of the part before lead into the next:
SMILES,Methyltransferases
COC(=O)C1=CO[C@@H](O[C@@H]2O[C@H](CO)[C@@H](O)[C@H](O)[C@H]2O)[C@@H]2C(CO)=CC[C@H]12,i
O=C1CC(C(=O)Nc2cccc(Cl)c2)n2ncnc2N1 (stereo not given),i
CN(C(=O)Cn1nc2n(C)c(=O)c3ccc(C(=O)NC4CCCC4)cc3n2c1=O)c1ccc(F)cc1,i
NC(=O)c1cnc(N[C@@H]2CCCC[C@H]2N)nc1Nc1cccc(-n2nccn2)c1,?
CCCC(=O)Nc1cccc(NC(=O)c2ccccc2Br)c1,i
CCCn1c(=O)c2cc(F)ccc2n2c(SCC(=O)Nc3ccc(C)cc3C)nnc12,i
C=C[C@]1(C)C=C2CCC3C(C)(CCC[C@@]3(C)C(=O)O)C2CC1 (stereo not given in full),i
COc1ccc(CCN2C(=O)c3cc4sccc4n3CC2(C)C(=O)NC2CCCC2)cc1OC (stereo not given),i
O=S(=O)(NCCn1c(-c2ccncc2)nc2ccccc21)c1ccc(Cl)cc1,i
CCCCN1C(=O)c2cc3ccc(OC)cc3n2CC1(C)C(=O)NC1CCCCC1 (stereo not given),i
CC(C)Cn1c(=O)c2ccc(C(=O)NC3CCCCC3)cc2n2c(=O)n(CC(=O)NC(C)(C)C)nc12,i
Cc1cccc(Cn2nc3n(C(C)C)c(=O)c4ccc(C(=O)NCC(C)C)cc4n3c2=O)c1,i
COC(=O)C(C)C1CCC2(C)C(=O)C=CC(C)(O)C2C1O (stereo not given),i
Fc1ccccc1CNCc1ccc(-c2ccnc3[nH]ccc23)cc1,?
COC(=O)c1cc2n(n1)CC(C)(C(=O)NC1CCCCC1)N(c1cccc(Cl)c1C)C2=O (stereo not given),i
CCOc1ccccc1CN1C(=O)c2cc3oc(C)cc3n2CC1(C)C(=O)NC1CCCCC1 (stereo not given),i
CC(C)OCCCn1c(=O)c2ccccc2n2c(=O)n(CC(=O)Nc3cccc(F)c3)nc12,i
Cc1cc2c(cc3n2CC(C)(C(=O)NC2CCCCCC2)N(Cc2ccccc2)C3=O)o1 (stereo not given),i
Cc1ccoc1C(=O)N1CCc2c(nc(-c3cccnc3)nc2N(C)C)C1,?
CC1=C(C(=O)OCc2ccccc2)C(c2ccc(-c3ccccc3)cc2)NC(=O)N1CCCCCC(=O)O (stereo not given),+

# An excerpt (hit frequency here may not be typical).
